Ecoli rRNA inh – inhibits bacterial ribosomal RNA function over humanized ribosomes. AID 720706. E. coli WT GFP vs humanized-ribosome RFP mutants, fluorescence, 24 h; hits give low values; DMSO median 0, no signal -100. 1.6% of 350,000 active. GFP signal change (wild-type ribosome), % (test concentration not listed);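 active means significant combined selectivity score with lowered wild-type GFP, culture density cut under 30%, mutant RFP and density less affected; inactive means any of these conditions unmet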; further: one replicate is shown; some compounds called inactive have numbers as strong as hits
FGF22 binding – FGF22 (human) thermal shift binding | Q9HCT0 | recombinant FGF22 thermal shift, SYPRO orange fluorescence; percent of sucrose octasulfate shift, DMSO zero | calls only at 9.99 µM | 1.5% of 340,000 active;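 active means melting point raised past a set limit in the mean and every replicate; three in four hits are not shown here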
Target sequence (Q9HCT0 whole entry, looked up): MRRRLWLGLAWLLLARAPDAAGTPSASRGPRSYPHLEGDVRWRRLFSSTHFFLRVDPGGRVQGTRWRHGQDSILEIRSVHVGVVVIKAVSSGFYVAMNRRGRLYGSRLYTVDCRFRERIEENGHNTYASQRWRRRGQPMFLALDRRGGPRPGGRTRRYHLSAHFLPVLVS
AF4-AF9 inh – blocks AF4 peptide binding to human AF9; 0.47% of 350,000 active; AlphaScreen, biotin-AF4 peptide binding to FLAG-AF9; inhibition, % at 10 µM; P42568;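 active means every replicate reaching a set inhibition limit, whatever the replicate mean, cut at about 25% in these data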;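 further: 0% = plate neutral control median and 100% = total signal loss; the record names both 10 and 1 µM as test concentration; the first replicate is given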
Target sequence (P42568 whole entry, looked up): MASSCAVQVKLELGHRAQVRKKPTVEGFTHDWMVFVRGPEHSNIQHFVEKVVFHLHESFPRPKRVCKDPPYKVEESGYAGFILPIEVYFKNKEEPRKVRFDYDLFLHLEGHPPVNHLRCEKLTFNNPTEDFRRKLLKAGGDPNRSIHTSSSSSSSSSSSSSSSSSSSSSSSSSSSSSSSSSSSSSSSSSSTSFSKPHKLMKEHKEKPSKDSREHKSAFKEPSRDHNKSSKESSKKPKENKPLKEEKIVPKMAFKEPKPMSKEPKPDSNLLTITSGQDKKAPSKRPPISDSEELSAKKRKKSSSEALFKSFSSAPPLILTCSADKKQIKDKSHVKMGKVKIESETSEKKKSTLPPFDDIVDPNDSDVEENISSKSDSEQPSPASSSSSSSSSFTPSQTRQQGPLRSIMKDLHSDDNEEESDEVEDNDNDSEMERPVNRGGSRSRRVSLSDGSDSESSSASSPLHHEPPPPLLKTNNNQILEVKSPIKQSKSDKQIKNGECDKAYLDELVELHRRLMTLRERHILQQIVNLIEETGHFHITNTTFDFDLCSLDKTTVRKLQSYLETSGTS
Ecoli rRNA inh OD600 – also measured in Ecoli rRNA inh; calls as there; OD600 change, %; measured here: OD600 growth;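 optical density of the mix in the first replicate; 0 = DMSO median and -100 = no signal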
Ecoli rRNA inh RFP – second read-out of Ecoli rRNA inh, no call of its own (marks repeat the call); RFP signal change, %; measured here: RFP humanized mutant strains;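 first replicate; 0 = DMSO median and -100 = no signal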
An asterisk follows results filed as active; i = inactive. A portion of the library; rates above refer to the full screens.

Ecoli rRNA inh	Ecoli rRNA inh OD600	Ecoli rRNA inh RFP	FGF22 binding	AF4-AF9 inh	mol
3.2	10.2	-0.3	i	-0.5	O=C(C[C@@H]1C[C@@H]2c3cc(NC(=O)C4CCOCC4)ccc3O[C@@H]2[C@@H](CO)O1)NCc1ccccn1
12.4	15.4	0.5	i	-0.9	CCOC(=O)C1=C(C(=O)OCC)C2N(Cc3ccc(Br)cc3)c3ccccc3[C@@]23C[C@@H](C(=O)OC)N(S(=O)(=O)c2ccc(F)cc2)C3=N1 (stereo not given in full)
-1.1	-7.2	1.0	i	-0.9	O=C(C[C@H]1C[C@@H]2c3cc(NS(=O)(=O)c4ccc(F)cc4)ccc3O[C@@H]2[C@@H](CO)O1)NC1CCCC1
0.5	1.5	1.6	i	-1.1	COC(=O)c1ccc(Cn2c(C)c(C(=O)Nc3cccc(Oc4ccccc4)c3)sc2=O)o1
5.6	15.3	-4.7	i	-3.7	NC(=O)CCC(C(=O)O)N1C(=O)C2C3CCC(C3)C2C1=O (stereo not given)
5.3	16.7	5.2	i	-2.3	O=C1SCCN1N=Cc1ccc([N+](=O)[O-])o1
7.4	14.2	1.8	i	-3.5	CCCNC(=O)N(C)C[C@@H]1Oc2ncc(C#C[C@@H](C)O)cc2C(=O)N([C@H](C)CO)C[C@H]1C
-0.8	5.9	-2.0	i	2.7	COCC(=O)Nc1ccc2c(c1)C(=O)N(C)C[C@H](OC)[C@H](C)CN(CC1CCCCC1)[C@H](C)CO2
5.7	4.6	-1.2	i	-0.4	Nc1ncnc2c1ncn2[C@@H]1O[C@H](CNS(=O)(=O)C2CC2)[C@@H](O)[C@H]1O
6.3	3.6	-1.8	i	-1.7	CCCC(=O)Nc1ccc2c(c1)C(=O)N(C)[C@@H]1CC[C@H](CC(=O)Nc3cn(C)nc3C)O[C@H]1CO2
4.1	2.3	7.2	i	-1.2	N#C[C@H]1[C@H](c2ccc(C#Cc3cccc(F)c3)cc2)[C@@H](CO)N1C(=O)C1CCOCC1
-1.8	-7.7	1.5	i	-1.7	O=C(N[C@@H]1CC[C@@H](CCNS(=O)(=O)c2ccccc2Cl)O[C@@H]1CO)c1ccc(F)cc1
3.2	8.5	-4.4	i	-1.1	C[C@@H]1CN([C@H](C)CO)C(=O)c2cc(-c3cccnc3)cnc2O[C@H]1CN(C)C(=O)c1ccccc1F
-4.4	-8.3	1.3	i	-2.6	CCC(=O)N1CC2(C1)[C@H](c1ccc(-c3ccc(F)cc3)cc1)[C@H](CO)N2C(C)=O
0.1	1.9	-2.9	i	-1.4	O=C(C1CC1)N1CC2(C1)[C@@H](c1ccccc1)[C@@H](CO)N2S(=O)(=O)c1ccccc1
1.9	-3.0	0.2	i	-2.4	COc1ccccc1-c1cnc2c(c1)C(=O)N([C@@H](C)CO)C[C@H](C)[C@H](CN(C)C(=O)c1ccncc1)O2
-19.9*	-8.9*	2.5*	i	1.2	O=C(Cc1coc2cc(O)ccc12)N1CCN(S(=O)(=O)c2ccc(Br)cc2)CC1
6.2	-1.7	2.5	i	3.9	COc1ccc(-c2cc3nc(NCC4CCCCC4)n(C)c(=O)c3s2)cc1OC
-5.1	-0.3	-1.2	i	2.2	C[C@H]1CN([C@@H](C)CO)C(=O)c2cccc(NC(=O)C3CCOCC3)c2O[C@@H]1CN(C)Cc1ccc(Cl)c(Cl)c1
2.2	5.1	-1.2	i	-0.5	O=C(C[C@@H]1CC[C@@H](NC(=O)CN2CCOCC2)[C@@H](CO)O1)NC1CCC1
3.4	1.2	-1.2	i	-1.6	COc1ccccc1CNC(=O)C[C@H]1C=C[C@@H](NC(=O)CN(C)C)[C@H](CO)O1
2.7	9.9	-1.2	i	-1.6	CCNC(=O)[C@H]1[C@H](CO)[C@H]2Cn3c(ccc(-c4ccccc4F)c3=O)[C@@H]1N2CC
-0.9	-0.3	3.9	i	-1.3	Cc1ccc(S(=O)(=O)N(C)C[C@H]2OCCCC[C@H](C)Oc3ccc(NS(=O)(=O)c4ccc(Cl)cc4)cc3C(=O)N([C@@H](C)CO)C[C@H]2C)cc1
13.6	6.4	-2.6	i	-0.3	COC(=O)[C@]12C[C@H](CC(=O)NCC34CC5CC(CC(C5)C3)C4)C(=O)N(Cc3ccc4c(c3)OCO4)C1=C[C@H](C(C)(C)C)O[C@@H]2C
1.7	-0.8	-1.0	i	-1.8	C[C@H]1CN([C@@H](C)CO)C(=O)c2cc(NC(=O)Cc3ccccc3)ccc2O[C@@H]1CN(C)C(=O)Nc1ccc(F)cc1
3.6	12.1	3.5	i	-1.8	Cc1nn(C2CCS(=O)(=O)C2)c(C)c1CN(C)C(=O)c1ccc(F)cc1 (stereo not given)
-0.1	0.3	-0.3	i	-3.8	C[C@@H]1CN([C@@H](C)CO)C(=O)c2cc(C#CC3(O)CCCC3)cnc2O[C@@H]1CN(C)S(=O)(=O)c1ccccc1
-0.5	1.0	-1.9	i	-1.0	C[C@H](CO)N1C[C@H](C)[C@H](CN(C)C(=O)Nc2cccc3ccccc23)Oc2c(NC(=O)C3CCCCC3)cccc2C1=O
-10.7	-5.3	-2.4	i	-2.7	Cc1cc(C)cc(OCC(=O)Nc2nc(-c3ccccn3)cs2)c1
0.1	-6.8	0.3	i	-2.7	CCS(=O)(=O)N1CCC2(CC1)CN(Cc1cccnc1)[C@@H](CO)c1c2c2ccc(OC)cc2n1C

Results in AF4-AF9 inh, for 2 of the compounds above:
| SMILES | AF4-AF9 inh |
| --- | --- |
| COC(=O)c1ccc(Cn2c(C)c(C(=O)Nc3cccc(Oc4ccccc4)c3)sc2=O)o1 | -1.1 |
| NC(=O)CCC(C(=O)O)N1C(=O)C2C3CCC(C3)C2C1=O (stereo not given) | -3.7 |

Next part.
Ecoli rRNA inh	Ecoli rRNA inh OD600	Ecoli rRNA inh RFP	FGF22 binding	AF4-AF9 inh	mol
0.7	-0.2	0.0	i	-0.5	COCC(=O)Nc1ccc2c(c1)C(=O)N(C)C[C@@H](OC)[C@H](C)CN(C(=O)c1ccccn1)[C@@H](C)CO2
-5.5	-0.1	1.0	i	5.9	C/C=C/c1ccc2c(c1)O[C@@H](CN(C)S(=O)(=O)c1ccc(C)cc1)[C@@H](C)CN([C@@H](C)CO)S2(=O)=O
0.3	16.9	3.9	i	-2.4	Cc1ccc(S(=O)(=O)N2CC[C@H]3[C@@H](CO)N(C)c4ccc(-c5ccccc5F)cc4[C@H]32)cc1
-2.1	3.6	6.3	i	4.8	COc1ccc2c3c([nH]c2c1)[C@@H](CO)N(Cc1nccs1)CC31CCN(Cc2ccncc2)CC1
-2.5	-5.3	-0.5	i	-5.2	Cc1noc(C)c1S(=O)(=O)N(C)C[C@H]1Oc2ccc(NC(=O)Nc3ccc(F)cc3)cc2CC(=O)N([C@@H](C)CO)C[C@H]1C
-1.8	-11.1	0.3	i	4.5	O=C(N/C(=C/c1cccc(Br)c1)C(=O)N1CCCCC1)c1ccco1
4.4	-2.3	-4.2	i	-1.4	CC(C)NC(=O)C1(C)CCN1C(=O)c1cccc(F)c1 (stereo not given)
1.6	7.2	-1.8	i	-3.6	COc1ccccc1-c1cnc2c(c1)C(=O)N([C@@H](C)CO)C[C@@H](C)[C@H](CN(C)C)O2
-12.0	-28.3	0.1	i	5.2	C[C@]12c3[nH]c4ccc(Cl)cc4c3CCN1C(=O)[C@@H](CC(=O)NCc1cccc(C(F)(F)F)c1)C[C@@H]2C(=O)N1CCOCC1
-6.7	-10.6	2.9	i	-0.1	COc1ccccc1CNC(=O)C[C@@H]1CC[C@@H]2[C@H](COC[C@H](O)CN2Cc2ccc3c(c2)OCO3)O1
3.7	6.5	-2.9	i	1.9	CC1(c2nc3ccccc3[nH]2)c2ccccc2C(=O)N1Cc1ccccc1 (stereo not given)
0.7	4.7	-2.8	i	-1.2	CCC(=O)N[C@H]1CC[C@H](CC(=O)NCc2ccc(OC)cc2)O[C@H]1CO
-3.9	-1.5	-1.4	i	-7.3	CCCNC(=O)N(C)C[C@@H]1Oc2ncc(C#Cc3ccncc3)cc2C(=O)N([C@H](C)CO)C[C@H]1C
8.0	4.5	1.3	i	7.5	Cc1ccc(S(=O)(=O)N2CCN(C(=O)c3ccc(N4CCC(C)CC4)c([N+](=O)[O-])c3)CC2)cc1
3.7	7.3	1.1	i	-2.4	Cc1noc(C)c1NC(=O)Nc1ccc2c(c1)C(=O)N([C@@H](C)CO)C[C@H](C)[C@@H](CN(C)S(=O)(=O)c1ccc(F)cc1)O2

One compound at a time, as listed above. Screens in order: Ecoli rRNA inh, Ecoli rRNA inh OD600, Ecoli rRNA inh RFP, FGF22 binding, AF4-AF9 inh
Results for CCCNC(=O)N(C)C[C@@H]1Oc2ncc(C#Cc3ccncc3)cc2C(=O)N([C@H](C)CO)C[C@H]1C : -3.9, -1.5, -1.4, i, -7.3
Results for C/C=C/c1ccc2c(c1)O[C@@H](CN(C)S(=O)(=O)c1ccc(C)cc1)[C@@H](C)CN([C@@H](C)CO)S2(=O)=O : -5.5, -0.1, 1.0, i, 5.9
Results for C[C@]12c3[nH]c4ccc(Cl)cc4c3CCN1C(=O)[C@@H](CC(=O)NCc1cccc(C(F)(F)F)c1)C[C@@H]2C(=O)N1CCOCC1 : -12.0, -28.3, 0.1, i, 5.2

Additional results.
Ecoli rRNA inh	Ecoli rRNA inh OD600	Ecoli rRNA inh RFP	FGF22 binding	AF4-AF9 inh	mol
2.4	9.3	3.4	i	-0.6	C[C@@H]1CCCCO[C@H](CN(C)Cc2ccc(C(F)(F)F)cc2)[C@H](C)CN([C@H](C)CO)C(=O)c2cc(NS(=O)(=O)c3ccc(Cl)cc3)ccc2O1
-8.6	-14.1	-1.6	i	-3.9	Cc1noc(C)c1S(=O)(=O)Nc1ccc2c(c1)C(=O)N([C@@H](C)CO)C[C@H](C)[C@H](CN(C)C(=O)Nc1cccc3ccccc13)O2
1.0	-6.6	9.0	i	-2.4	Cc1ccc(S(=O)(=O)Nc2ccc3c(c2)C(=O)N([C@H](C)CO)C[C@H](C)[C@H](CN(C)Cc2ccc4c(c2)OCO4)OCCCC[C@@H](C)O3)cc1
-14.6	-68.1	15.7	i	0.7	O=C(Nc1cc(F)ccc1F)N1C[C@@H]2[C@H](c3ccccc31)[C@H](CO)N2CC1CCCC1
0.6	-0.5	1.8	i	-0.7	C[C@H](CO)N1C[C@H](C)[C@H](CN(C)Cc2ccc(Cl)c(Cl)c2)Oc2ccc(NC(=O)Nc3ccc(F)cc3)cc2CC1=O
-2.9	-3.2	-3.1	i	-3.8	O=C(Nc1ccc2c(c1)OCO2)N[C@H]1CC[C@H](CCNC(=O)C2CC2)O[C@@H]1CO
-1.3	-13.2	-0.5	i	-1.4	COc1ccc(NC(=O)N(C)C[C@@H]2OCCCC[C@@H](C)Oc3ccc(NC(=O)c4ccccc4)cc3C(=O)N([C@H](C)CO)C[C@H]2C)cc1
-3.5	1.8	-2.7	i	-2.3	C[C@@H]1CN([C@H](C)CO)C(=O)c2cc(-c3ccc(F)cc3)cnc2O[C@H]1CN(C)C(=O)C1CCC1
0.4	0.2	0.9	i	3.1	CCN(CC)S(=O)(=O)c1ccc(C(C)NCC(=O)Nc2ccccc2C(=O)NC2CC2)cc1 (stereo not given)
2.1	1.1	-1.9	i	-1.4	C[C@H]1CN([C@@H](C)CO)C(=O)c2cc(NC(=O)Nc3ccc(C(F)(F)F)cc3)ccc2O[C@H]1CN(C)C(=O)Nc1ccc(C(F)(F)F)cc1
-0.6	3.5	-0.1	i	-1.0	O=C(NCC1CC1)C1Cc2c(-c3ccc4c(c3)OCO4)ccnc2O1 (stereo not given)
4.4	13.5	-1.1	i	0.5	C[C@@H]1CN([C@H](C)CO)C(=O)c2cccc(NC(=O)C3CCOCC3)c2O[C@@H]1CN(C)C(=O)Nc1ccc(F)cc1
-1.4	-9.9	2.8	i	-4.5	CCCN(C)C[C@H]1Oc2cc(-c3ccc(C)cc3)ccc2S(=O)(=O)N([C@H](C)CO)C[C@@H]1C
-1.0	0.3	0.9	i	-4.5	COC(=O)C[C@H]1CC[C@H]2[C@H](COc3ccc(NC(=O)c4cscn4)cc3C(=O)N2C)O1
4.2	9.8	-2.1	i	-8.1	C[C@H](CO)N1C[C@H](C)[C@H](CN(C)S(=O)(=O)c2cn(C)cn2)Oc2ccc(NC(=O)CCC(F)(F)F)cc2C1=O
4.7	8.9	-1.0	i	-6.2	CNC[C@H]1OCCCC[C@H](C)Oc2ccc(NS(=O)(=O)c3cccs3)cc2C(=O)N([C@@H](C)CO)C[C@@H]1C
8.3	18.3	0.8	i	-4.2	Cn1cc(-c2csc(C(C)(O)c3cccnc3)n2)cn1 (stereo not given)
0.4	6.9	1.0	i	-0.2	C[C@H](CO)N1C[C@H](C)[C@H](CN(C)C(=O)Nc2cccc3ccccc23)Oc2ncc(C#Cc3cccc(F)c3)cc2C1=O
1.6	3.5	-0.3	i	-2.0	CN1C(=O)c2cc(NC(=O)C3CC3)ccc2OC[C@H]2O[C@H](CC(=O)NC3CCC3)CC[C@H]21
-3.7	-8.4	-2.1	i	1.2	COCC#Cc1ccc2c(c1)O[C@H](CN(C)Cc1cncnc1)[C@@H](C)CN([C@H](C)CO)S2(=O)=O
0.6	-3.7	-1.6	i	-4.9	C[C@H]1CN([C@@H](C)CO)C(=O)CCCn2nncc2CO[C@H]1CN(C)CC1CCCC1
12.2	11.2	5.6	i	-1.8	OC(COc1ccccc1)CN1CCN(c2ccccc2)CC1 (stereo not given)
-3.7	-23.1	3.4	i	-1.3	O=C(NCc1ccccc1)c1cc(C2CCCCN2C(=O)CCc2ccccc2)on1 (stereo not given)

Screening data from PubChem.
